PKD1 kinase inh: blocks activity of human protein kinase D1 | inhibition, %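 (about 10 µM by stock and volumes)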 | 200,000 tested, 0.056% active | PKD1 kinase fluorescence polarization assay;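 active = inhibition of 50% or more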;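 also: controls were vehicle for no effect and a reference inhibitor for full effect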
Target sequence (Q15139 whole entry, looked up): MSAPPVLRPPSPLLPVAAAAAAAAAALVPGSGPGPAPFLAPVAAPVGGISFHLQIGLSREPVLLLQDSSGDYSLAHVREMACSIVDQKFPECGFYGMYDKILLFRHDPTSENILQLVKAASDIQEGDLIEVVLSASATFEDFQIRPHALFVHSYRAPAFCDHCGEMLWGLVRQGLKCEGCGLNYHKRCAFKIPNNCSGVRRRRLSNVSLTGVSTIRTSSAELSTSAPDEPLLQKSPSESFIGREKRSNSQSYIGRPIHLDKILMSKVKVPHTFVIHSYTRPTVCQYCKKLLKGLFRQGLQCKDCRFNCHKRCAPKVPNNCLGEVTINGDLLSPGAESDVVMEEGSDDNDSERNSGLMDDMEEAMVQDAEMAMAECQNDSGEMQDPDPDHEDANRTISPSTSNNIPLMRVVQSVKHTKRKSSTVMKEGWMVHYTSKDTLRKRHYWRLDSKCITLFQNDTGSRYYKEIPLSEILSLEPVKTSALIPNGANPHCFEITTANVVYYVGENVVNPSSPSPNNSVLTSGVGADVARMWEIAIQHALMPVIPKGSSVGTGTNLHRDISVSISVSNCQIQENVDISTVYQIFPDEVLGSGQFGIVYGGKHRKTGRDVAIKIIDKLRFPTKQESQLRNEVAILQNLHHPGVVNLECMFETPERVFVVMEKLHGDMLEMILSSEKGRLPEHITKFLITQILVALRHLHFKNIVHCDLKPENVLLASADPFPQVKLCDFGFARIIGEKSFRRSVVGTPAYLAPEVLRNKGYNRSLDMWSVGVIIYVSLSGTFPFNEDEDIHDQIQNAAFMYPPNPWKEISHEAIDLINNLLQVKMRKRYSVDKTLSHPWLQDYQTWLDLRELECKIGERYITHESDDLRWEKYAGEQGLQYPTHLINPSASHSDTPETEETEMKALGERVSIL
Insulin prom inh: TRM-6 insulin promoter activity inhibition; AID 1273; inhibition, % at 2 µM; TRM-6 cells (human fetal islet line), insulin promoter-eGFP reporter, imaging; reporter expression induced with tamoxifen; 130,000 tested, 0.9% active;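 active = inhibition above the mean plus 3 SD, with well images judged a real hit on visual review, cut at about 60% in these data, passing the limit was not always enough; inconclusive = inhibition over the cutoff but images rejected on review; inactive = inhibition not above the cutoff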
RGS16-Gao HTS: regulators of human RGS16-Galphao interaction; AID 1441; 220,000 tested, 0.38% active; bead-based flow cytometry RGS16-Galphao binding, fluorescence; actives lie on both sides; O15492+P09471; binding response (% of control), % at 10 µM;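 active = below 25% or above 175%, edge rows of some plates excepted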;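 also: Galphao activated by GDP with aluminum fluoride before binding; 100% = wells without compound and 0% = beads without RGS; some results beyond the cut were filed as inactive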
GALR2 agonist: agonists of human galanin receptor 2 (GALR2); activation, %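 (tested at 5 µM)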; 140,000 tested, 0.48% active; AID 803; O43603; GALR2-expressing cells, agonist activation read-out;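 active = above mean plus 3 SD of all compounds, about 5% in these data, not always enough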;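 also: 0% = vehicle buffer wells and 100% = reference agonist at full effect; tested in CHO reporter cells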
HSV replic up: increases HSV replication in cells | HSV replication augmentation in cells, fold increase | maximum fold increase | 220,000 tested, 0.005% active;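 active = peak rise of 1.5-fold or more in the series; inconclusive = self-fluorescent or not available for retest; tested in PC3 cells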;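 also: first round at 10 µM; read as green reporter fluorescence; hits show the peak of a series up to 25 µM; 1 = signal of infected wells without compound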
Insulin prom inh cell count: recorded beside Insulin prom inh, whose call it bears; normalized cell count, %; measured here: cell count, toxicity; reference of the scale not given here;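 cells exposed to compound for 48 h; stained nuclei by imaging scaled within each plate; lower means fewer cells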
HSV replic up primary fold: also measured in HSV replic up; calls as there; fold increase; compound at 10 µM; measured here: primary screen fold increase 10 uM; tested in PC3 cells;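 GFP signal in the first replicate; 1 = infected wells without compound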
* marks the source's active call; other numbers are inactive results; i = inactive; ? = inconclusive; . = no result given.

SMILES	PKD1 kinase inh	Insulin prom inh	Insulin prom inh cell count	RGS16-Gao HTS	GALR2 agonist	HSV replic up	HSV replic up primary fold
CCC(C)[C@H](NC(=O)Nc1ccccc1F)C(=O)OC (some centres not stated)	.	.	.	101	.	i	0.94
CCC(C)NCCOCCOc1ccc(Br)cc1 (configuration not stated)	-4	.	.	101	.	i	1
CC1CN(C(=O)c2c([N+](=O)[O-])cnn2C)CC(C)O1 (configuration not stated)	-4	21	90	81	-1.7	i	0.9
COc1ccc(CN(C(=O)c2ccco2)c2ccc(C)cc2)cc1OC	10	.	.	104	-0.6	i	0.93
O=C(CN1C(=O)NC2(CCCC2)C1=O)N1CCN(S(=O)(=O)c2ccccc2)CC1	-7	.	.	102	.	i	0.98
CCN(CC)c1cc(C)c2cc(NC(=O)c3ccc(Br)o3)ccc2n1	3	-5	93	103	-1.3	i	0.83
CCN(CC)S(=O)(=O)c1ccc2c(c1)c(=O)c(C(=O)N1CCOCC1)cn2C	-6	-6	74	100	-1.1	i	0.84
CC1=N/C(=C/c2ccc([N+](=O)[O-])cc2)C(=O)N1c1ccc(Cl)cc1Cl	-4	.	.	104	3.5	i	0.96
Cc1cc(C)cc(N(CC(=O)N2CCOCC2)S(=O)(=O)c2ccccc2)c1	0	-72	104	100	-1.9	i	1
CCOC(=O)C1CCN(C(=O)COc2ccc(Br)cc2Br)CC1	-9	.	.	102	.	i	1.1
CCC12CN3CC(CC)(CN(C1)C3c1ccccc1Cl)C2O (configuration not stated)	9	.	.	111	-0.2	i	0.89
O=C(Nc1nnc(/C=C/c2ccccc2)s1)c1ccco1	.	.	.	124	.	i	0.9
COc1ccc(-c2cc(C(=O)NCc3cn(C)nc3C)c3ccccc3n2)cc1OC	-7	-36	48	61	-1.2	i	0.88
O=C(N[C@H]1CC1c1ccccc1)c1ccc([N+](=O)[O-])cc1 (some centres not stated)	.	.	.	96	.	i	0.97
CCS(=O)(=O)N1CCCC(C(=O)NCCN(C)Cc2ccccc2)C1 (configuration not stated)	2	23	107	99	-1.4	i	1
Cc1cc(NC(=O)Nc2cccc(C(F)(F)F)c2)no1	4	55	59	100	0.4	i	0.85
O=C(Nc1cccc(C(F)(F)F)c1)C1CCCCC1	3	.	.	96	-2.7	i	1
Cn1nnnc1SCC(=O)Nc1ccccc1[N+](=O)[O-]	-17	0	94	102	-1.3	i	0.99
COC(=O)C1=C(C)NC(C)=C(C(=O)OC)C1C(=O)OCCN1C(=O)c2ccccc2C1=O	7	12	62	106	0.4	i	1
O=c1[nH]c(CO)nc2c1oc1ccccc12	-1	16	105	96	-1.4	i	1
CC1=C(C(=O)OC2CCCC2)C(c2ccc(C)o2)C2=C(CC(c3cccs3)CC2=O)N1 (configuration not stated)	-7	-25	172	108	-1.2	i	0.85
CCNC(=O)NC(=O)C(C)Oc1ccc(C(=O)OC)cc1 (configuration not stated)	4	.	.	107	-3.2	i	1
CS(=O)(=O)NN1C(=O)c2ccccc2NC1c1cccc2cccnc12 (configuration not stated)	-2	-10	72	96	-1.3	i	1
O=C(C=C1SCCS1)/C=C/c1ccco1	-19	26	157	100	-1.9	.	.
O=S(=O)(Nc1ccccc1N1CCCCC1)c1ccc(F)cc1F	-7	.	.	98	.	i	0.91

Given as labelled records: entries from further up
CC1=C(C(=O)OC2CCCC2)C(c2ccc(C)o2)C2=C(CC(c3cccs3)CC2=O)N1 (configuration not stated)
  PKD1 kinase inh: -7
  Insulin prom inh: -25
  Insulin prom inh cell count: 172
  RGS16-Gao HTS: 108
  GALR2 agonist: -1.2
  HSV replic up: i
  HSV replic up primary fold: 0.85

COC(=O)C1=C(C)NC(C)=C(C(=O)OC)C1C(=O)OCCN1C(=O)c2ccccc2C1=O
  PKD1 kinase inh: 7
  Insulin prom inh: 12
  Insulin prom inh cell count: 62
  RGS16-Gao HTS: 106
  GALR2 agonist: 0.4
  HSV replic up: i
  HSV replic up primary fold: 1

CCN(CC)c1cc(C)c2cc(NC(=O)c3ccc(Br)o3)ccc2n1
  PKD1 kinase inh: 3
  Insulin prom inh: -5
  Insulin prom inh cell count: 93
  RGS16-Gao HTS: 103
  GALR2 agonist: -1.3
  HSV replic up: i
  HSV replic up primary fold: 0.83

Other results follow.
SMILES	PKD1 kinase inh	Insulin prom inh	Insulin prom inh cell count	RGS16-Gao HTS	GALR2 agonist	HSV replic up	HSV replic up primary fold
COc1ccc(C)cc1NC(=O)C(Sc1nnnn1C)c1ccccc1 (configuration not stated)	4	.	.	105	.	i	0.89
COc1cccc(CNC(=O)CCNS(=O)(=O)c2cccc3nsnc23)c1	2	-11	81	111	.	i	0.93
CCOC(=O)C1(CCc2ccccc2)CCN(C(=O)C(C)n2cncn2)CC1 (configuration not stated)	2	.	.	103	.	i	1
Cn1c(=NC(=O)COc2ccccc2)sc2ccccc21	-8	0	190	112	.	i	1
CC(C)Cn1c(-c2ccco2)nc2c(c(=O)c3ccccc3n2C)c1=O	-1	28	146	100	3.2	i	0.97
Cn1c(CS(=O)Cc2c(Cl)cccc2Cl)nnc1SCc1c(Cl)cccc1Cl (configuration not stated)	6	-12	140	106	-1.7	i	1.2
C/C=C/c1ccc(OCCCn2cncn2)c(OC)c1	-6	-47	156	98	-1.7	.	.
COc1cccc(O[C@@H]2O[C@@H]3COC(C)(C)O[C@H]3[C@H](O)[C@H]2NC(C)=O)c1	-6	12	95	99	-2.7	i	0.94
CC(C)(C)OC(=O)N1CCC[C@H]1C(=O)NCc1ccc(Cl)cc1Cl	-5	.	.	105	.	i	0.95
COc1ccc(CN=C2NC(=O)CC(C(=O)Nc3ccccc3C)S2)cc1 (configuration not stated)	-2	.	.	95	-0.8	i	0.98
COc1ccc(N2CC(C(=O)OCC(=O)c3ccc(C)cc3)CC2=O)cc1 (configuration not stated)	3	-80	25	95	.	i	0.91
O=[N+]([O-])c1ccc(/C=C/c2nc3ccc([N+](=O)[O-])cc3[nH]2)cc1	-4	.	.	101	0.5	.	.
COc1cccc(-c2nnc(NC(C)=O)o2)c1	.	.	.	109	.	i	0.93
COc1cc(/C=C/C(=O)Nc2ccccc2C(F)(F)F)cc(OC)c1OC	0	.	.	105	-0.5	.	.
C=CCNC(=O)C1CCN(C(=O)c2ccc(-c3ccccc3)cc2)CC1	-5	.	.	117	.	i	1
CC1CC(C)CN(C(=O)/C(=C\c2ccccc2)c2ccccc2)C1 (configuration not stated)	-20	-165	147	97	-0.1	i	1
CCOC(=O)/C(=C\C=C1/Sc2ccccc2N1CC)C(C)=O	-16	-55	73	112	-0.5	?	.
Cn1c(=O)c2c(nc(N/N=C/c3cccs3)n2C)n(C)c1=O	.	.	.	98	.	i	0.94
CCOC(=O)c1cnc2c(C(=O)OCC)cnn2c1N	.	.	.	96	.	i	0.91
CC1(C)Cc2ccccc2C(c2cc3ccccc3oc2=O)=N1	3	-31	110	100	-0.4	i	0.87
CCOc1ccc(N=CC2=C(O)CC(c3ccco3)CC2=O)cc1 (configuration not stated)	-7	53	77	110	-1.8	i	1
COC(=O)C1C(c2ccc(Br)cc2)Nc2nnc(C(F)(F)F)n2C1(C)O (configuration not stated)	6	29	82	98	.	i	0.91
Cc1cc(Nc2ccccc2)c2c([N+](=O)[O-])c(C)cc(C)c2n1	-4	8	128	109	-3.4	i	0.98
CCOC(=O)c1oc2nc3c(cc2c1N)CCCC3	.	.	.	99	.	i	0.93
CCNc1nc(NC(C)C)nc(OCC)n1	9	72*	161*	101	0.5	i	0.89
New compounds follow:
SMILES	PKD1 kinase inh	Insulin prom inh	Insulin prom inh cell count	RGS16-Gao HTS	GALR2 agonist	HSV replic up	HSV replic up primary fold
Cc1ccc(/C=N/NC(=O)CSc2nc3ccccc3n2C)s1	-2	17	103	121	-1.9	i	0.84
O=C1c2ccccc2CN1CCNC(=S)NC1CCCCC1	1	-100	59	107	.	i	1
OCCCn1c(-c2ccccc2)n[nH]c1=S	-6	-25	68	100	-2.0	i	1
CN1C(=O)c2ccccc2C(C(=O)O)C1c1cn(C)c2ccccc12 (configuration not stated)	-3	.	.	98	-1.0	i	1.1
Cc1ccc(N2C(=O)c3cccc([N+](=O)[O-])c3C2=O)cc1C	1	.	.	101	.	i	1
CCOC(=O)COn1c(-c2cccc(Cl)c2)nc2ccc([N+](=O)[O-])cc21	-5	-11	111	90	0.0	i	0.92
COc1ccccc1/C=C/C(=O)NNC(=O)c1cccs1	-3	.	.	98	.	i	0.84
O=C(NNC(=O)C(c1ccccc1)c1ccccc1)c1cccs1	1	62	139	9	-0.9	i	1
O=C(CNc1ccccc1)NNC1=NCCC1	3	38	66	108	-2.3	i	1
COCCOC(=O)C1=C(C)N(Cc2ccccc2)C(=O)NC1c1cccc(OC)c1OC (configuration not stated)	-10	-42	168	100	-5.6	i	0.84
COC(=O)[C@H](Cc1ccccc1)NC(=O)[C@@H]1C[C@H]1[C@@H](NC(=O)OCc1ccccc1)c1ccccc1	-5	25	95	105	-2.7	i	1
CC(NC(=O)C12CC3CC(C1)CC(n1cncn1)(C3)C2)C12CC3CC(CC(C3)C1)C2 (configuration not stated)	-13	-70	146	102	-1.4	i	0.97
COC(=O)c1cc(OC)c(OC)cc1NC(=O)c1c(-c2ccccc2)noc1C	-1	-5	86	100	2.4	i	0.77
O=C(/C=C/c1ccc(OCCCF)cc1)Nc1ccnc(-c2ccncc2)n1	-8	47	83	97	.	i	0.97
CCC(C)(C)NC(=O)C(c1ccc(O)cc1)N(CCOC)C(=O)CCC(=O)Nc1nccs1 (configuration not stated)	.	.	.	100	.	i	1.1
COc1ccccc1C(=O)NC1CCCCCCC1	6	-15	96	101	-2.5	i	0.92
CN(C)C(=O)C1CC(=O)OC12CCCCC2 (configuration not stated)	.	.	.	103	.	i	0.97
CCCCSc1nc(SCC(=O)NCc2ccco2)c2c3c(sc2n1)COC(C)(CC)C3 (configuration not stated)	-12	-8	148	102	-1.8	i	0.73
CC(C)(C)NC(=O)C(=O)N/N=C/c1ccc(Br)cc1	0	.	.	103	-1.1	.	.
CC(C)(C)OC(=O)N1CC=C2C(C#N)=C(N)C(C#N)(C#N)[C@H](c3cccnc3)[C@H]2C1	1	-23	116	106	0.6	i	0.89
Cc1nc(NC(=O)COC(=O)C2=NNC(=O)CC2)c(Cl)cc1Cl	-4	-7	92	99	.	i	0.99
Cc1ccc(Cn2nc(C)c(NC(=O)CCCn3nc(C)c([N+](=O)[O-])c3C)c2C)cc1	-11	0	109	45	-0.8	i	1.1
Cc1onc(NC(=O)CSCC(=O)O)c1Br	.	.	.	96	.	i	0.92
CNC(=S)Nc1cc(OC)c(NC(=O)c2ccco2)cc1OC	2	-29	54	101	.	i	1.1
CC(Sc1nc(-c2ccccc2)cc(C(F)(F)F)n1)C(=O)N1CCOCC1 (configuration not stated)	5	20	111	108	-1.4	i	1.1
Next part
SMILES	PKD1 kinase inh	Insulin prom inh	Insulin prom inh cell count	RGS16-Gao HTS	GALR2 agonist	HSV replic up	HSV replic up primary fold
COCCNC(=O)C(c1ccco1)N(C(=O)Cn1nnc2ccccc21)c1cc(C)ccc1C (configuration not stated)	1	.	.	71	-1.0	i	1.1
C=CCN1CCN(Cc2cnc(Cl)s2)CC1	1	.	.	104	-2.3	i	1
CCOc1ccc(C2C(C#N)=C(N)SC(N)=C2C#N)c(OCC)c1	-2	.	.	95	-0.3	i	1.2
Cc1ccc(S(=O)(=O)N2CCN(C(=O)CSc3nc4ccccc4c(=O)[nH]3)CC2)c(C)c1	-8	-33	159	100	-0.5	i	0.85
CCOc1ccccc1OCC(=O)Nc1nc2ccccc2[nH]1	-7	27	21	103	.	i	1.1
Cn1c2ccccc2c2nnc(NN)nc21	.	.	.	93	.	i	1.1
CCC(=O)Nc1cc(-c2nnc(OC)c3ccccc23)ccc1N1CCOCC1	-3	.	.	97	-2.3	i	0.97
CC(C)(C)NC(=O)CSc1nnc(Cc2ccc3c(c2)OCO3)n1C1CCCCC1	-2	-46	90	101	0.2	i	0.89
O=C(COC(=O)CNC(=O)C1CCCCC1)Nc1ccc(Cl)cc1F	0	.	.	99	.	i	1.1

5 of the compounds above, with two lines to a compound.
Every second line gives: PKD1 kinase inh | Insulin prom inh | Insulin prom inh cell count | RGS16-Gao HTS | GALR2 agonist | HSV replic up | HSV replic up primary fold
Cc1onc(NC(=O)CSCC(=O)O)c1Br
  . | . | . | 96 | . | i | 0.92
CCOC(=O)C1(CCc2ccccc2)CCN(C(=O)C(C)n2cncn2)CC1 (configuration not stated)
  2 | . | . | 103 | . | i | 1
CCN(CC)c1cc(C)c2cc(NC(=O)c3ccc(Br)o3)ccc2n1
  3 | -5 | 93 | 103 | -1.3 | i | 0.83
CCC(C)NCCOCCOc1ccc(Br)cc1 (configuration not stated)
  -4 | . | . | 101 | . | i | 1
O=C(Nc1cccc(C(F)(F)F)c1)C1CCCCC1
  3 | . | . | 96 | -2.7 | i | 1
